Vaccinia stage: Vaccinia orthopox stage-specific inhibition; AID 1053133; Vaccinia-infected cells, mCherry/Venus stage reporter fluorescence; stronger effect = lower value; some inactives read as strong as hits; activity change (mCherry), % (test concentration not listed); 0.01% of 89,000 active;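 active means mCherry past -33% and 40 or more points under the early reporter, replicates agreeing; inconclusive means past -33% without that gap or agreement; tested in A549 cells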;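 further: scaled between vehicle wells and reference inhibitor wells; 23 nL library stock went into each well; one replicate is shown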
Vaccinia stage Venus: recorded beside Vaccinia stage, whose call it bears; activity change (Venus), %; measured here: Venus reporter, other viral stage;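 negative = less Venus signal; first of two replicates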
* hit, by the source's call. The list is partial (hit frequency here may not be typical).

`Cc1ccc(S(=O)(=O)N(C)C[C@@H]2Oc3ccc(NC(=O)CCN4CCOCC4)cc3CC(=O)N([C@@H](C)CO)C[C@H]2C)cc1` gave Vaccinia stage -14 and Vaccinia stage Venus -13.
`C[C@@H]1CN([C@H](C)CO)C(=O)c2cccc(NC(=O)Nc3ccc(F)cc3)c2O[C@@H]1CN(C)C(=O)Nc1ccc(F)cc1` gave Vaccinia stage -14 and Vaccinia stage Venus -6.
For Cn1cnc(S(=O)(=O)N2CC[C@H]3[C@H](CO)Nc4ccc(-c5ccc(F)cc5)cc4[C@H]32)c1 the results were Vaccinia stage -14 and Vaccinia stage Venus -23.
C[C@@H]1CCCCO[C@@H](CN(C)C(=O)CCC(F)(F)F)[C@H](C)CN([C@@H](C)CO)C(=O)c2cc(NC(=O)C3CCCCC3)ccc2O1 was read as Vaccinia stage -20 and Vaccinia stage Venus -11.
Screening CC(C)(C)[S@@](=O)N1Cc2cc(C(=O)NCCc3ccncc3)nc(-c3cccc(-c4cccnc4)c3)c2[C@H]1CCO returned Vaccinia stage 15 and Vaccinia stage Venus 22.
`C[C@H]1CN([C@@H](C)CO)C(=O)c2cccc(NC(=O)c3ccc(-c4nccs4)cc3)c2O[C@H]1CN(C)CC1CCCCC1` gave Vaccinia stage -3 and Vaccinia stage Venus -5.
For CO[C@H]1CN(C)C(=O)c2ccc(NC(=O)C3CCCCC3)cc2OC[C@@H](C)N(C(=O)c2ccccc2)C[C@@H]1C the results were Vaccinia stage 12 and Vaccinia stage Venus 15.
`Cc1noc(C)c1NC(=O)Nc1ccc2c(c1)CC(=O)N([C@H](C)CO)C[C@H](C)[C@H](CN(C)C)O2` gave Vaccinia stage 15 and Vaccinia stage Venus 7.
Screening CO[C@H]1CN(C)C(=O)c2cc(NC(C)=O)ccc2OC[C@@H](C)N(C(=O)c2ccncc2)C[C@H]1C returned Vaccinia stage 9 and Vaccinia stage Venus 13.
For CN1C(=O)c2cc(NC(=O)c3ccc(F)c(F)c3)ccc2OC[C@H]2O[C@H](CC(=O)N[C@H]3CCN(Cc4ccccc4)C3)CC[C@@H]21 the results were Vaccinia stage -26 and Vaccinia stage Venus -17.
`COCC(=O)Nc1ccc2c(c1)[C@@H]1C[C@H](CC(=O)NCc3ccc(OC)cc3)O[C@@H](CO)[C@@H]1O2` gave Vaccinia stage 14 and Vaccinia stage Venus 15.
Screening C[C@@H]1CN([C@@H](C)CO)C(=O)Cc2cc(NC(=O)C3CCCCC3)ccc2O[C@H]1CN(C)S(=O)(=O)c1ccc(Cl)cc1 returned Vaccinia stage -29 and Vaccinia stage Venus -24.
C[C@H]1CN([C@@H](C)CO)C(=O)CCCn2cc(nn2)CO[C@@H]1CN(C)S(=O)(=O)c1cccs1 was read as Vaccinia stage 8 and Vaccinia stage Venus -4.
Screening C[C@@H]1CN([C@@H](C)CO)C(=O)c2cccc(NC(=O)c3cnccn3)c2O[C@@H]1CN(C)S(C)(=O)=O returned Vaccinia stage 21 and Vaccinia stage Venus 14.
`CCCNC(=O)[C@H]1[C@H](CO)[C@H]2Cn3c(ccc(C4=CCCCC4)c3=O)[C@@H]1N2CC` gave Vaccinia stage 13 and Vaccinia stage Venus 19.
Screening O=C(C[C@@H]1C[C@H]2c3cc(NC(=O)Cc4ccncc4)ccc3O[C@H]2[C@@H](CO)O1)NCc1ccc(-c2ccccc2)cc1 returned Vaccinia stage 0 and Vaccinia stage Venus 5.
O=C(Cc1cccnc1)N1CCCCN2[C@H](CO)[C@@H](c3ccc(C#CC4CCCC4)cc3)[C@H]2C1 was read as Vaccinia stage inconclusive.
For COCCNC(=O)C[C@H]1C[C@@H]2c3cc(NC(=O)NC4CCCC4)ccc3O[C@@H]2[C@H](CO)O1 the results were Vaccinia stage 4 and Vaccinia stage Venus -3.
For Cc1ccccc1-c1ccc(C2[C@@H]3CN(C(=O)C4CC4)C[C@H]2N3)cc1 (stereo partly drawn) the results were Vaccinia stage inconclusive and Vaccinia stage Venus -15.
For OC[C@H]1[C@@H](c2ccc(C#Cc3ccccc3F)cc2)[C@H]2CN(CC3CCOCC3)CCCCN21 the results were Vaccinia stage -18 and Vaccinia stage Venus -10.
Screening C[C@@H]1CN([C@@H](C)CO)C(=O)c2cc(-c3cccc(C#N)c3)cnc2O[C@H]1CN(C)C(=O)c1ccccn1 returned Vaccinia stage 11 and Vaccinia stage Venus 10.
C[C@H]1CN([C@@H](C)CO)C(=O)c2cccc(NS(=O)(=O)c3ccccc3)c2O[C@H]1CN(C)S(=O)(=O)c1cccs1 was read as Vaccinia stage 0 and Vaccinia stage Venus 3.
Screening C[C@H](CO)N1C[C@H](C)[C@H](CN(C)S(C)(=O)=O)Oc2ccc(NC(=O)CCCN(C)C)cc2C1=O returned Vaccinia stage 14 and Vaccinia stage Venus 10.
For C[C@@H]1CN([C@@H](C)CO)C(=O)Cc2cc(NC(=O)Nc3ccccc3)ccc2O[C@H]1CN(C)S(=O)(=O)c1cccs1 the results were Vaccinia stage 15 and Vaccinia stage Venus 26.
For C[C@@H]1CCCCO[C@H](CN(C)C(=O)Nc2ccc(F)cc2)[C@@H](C)CN([C@@H](C)CO)C(=O)c2cc(NC(=O)Cc3ccccc3)ccc2O1 the results were Vaccinia stage -28 and Vaccinia stage Venus -16.
C/C=C/c1ccc([C@H]2[C@@H](CO)N(C(C)=O)C23CN(C(=O)c2ccncc2)C3)cc1 was read as Vaccinia stage 7 and Vaccinia stage Venus 15.
Screening COc1ccc(CN(C)C[C@H]2OCCCC[C@@H](C)Oc3ccc(NC(=O)Nc4ccc(C(F)(F)F)cc4)cc3C(=O)N([C@H](C)CO)C[C@@H]2C)cc1 returned Vaccinia stage inconclusive.
CO[C@H](CN(C)C(=O)c1ccc2c(c1)OCO2)[C@@H](C)CN([C@H](C)CO)S(=O)(=O)c1ccc(F)cc1 was read as Vaccinia stage 8 and Vaccinia stage Venus 13.
CNC[C@H]1Oc2c(NS(=O)(=O)c3ccc(Cl)cc3)cccc2C(=O)N([C@H](C)CO)C[C@H]1C was read as Vaccinia stage 1 and Vaccinia stage Venus -6.
`CCCC#Cc1ccc([C@@H]2[C@@H](CO)N3CCCCN(S(=O)(=O)c4ccccc4F)C[C@@H]23)cc1` gave Vaccinia stage 12 and Vaccinia stage Venus -2.
CC(C)NC(=O)Nc1ccc2c(c1)CC(=O)N([C@H](C)CO)C[C@@H](C)[C@H](CN(C)S(=O)(=O)c1ccccc1)O2 was read as Vaccinia stage 4 and Vaccinia stage Venus -5.
Screening C[C@H](CO)N1C[C@H](C)[C@H](CN(C)Cc2cccc(C(=O)O)c2)Oc2cc(C3=CCCC3)ccc2S1(=O)=O returned Vaccinia stage 14 and Vaccinia stage Venus 7.
C[C@@H]1CCCCO[C@@H](CN(C)C)[C@@H](C)CN([C@@H](C)CO)C(=O)c2cc(NS(=O)(=O)c3cccs3)ccc2O1 was read as Vaccinia stage 15 and Vaccinia stage Venus 9.
`C[C@H](CO)N1C[C@H](C)[C@H](CN(C)C(=O)C2CCCCC2)Oc2cc(-c3cncnc3)ccc2S1(=O)=O` gave Vaccinia stage 31 and Vaccinia stage Venus 20.
For C[C@@H]1CN([C@@H](C)CO)S(=O)(=O)c2ccc(/C=C/c3ccccc3)cc2O[C@H]1CN(C)C(=O)NC1CCCC1 the results were Vaccinia stage inconclusive.
C[C@@H]1CCCCO[C@@H](CN(C)S(=O)(=O)c2cn(C)cn2)[C@H](C)CN([C@@H](C)CO)C(=O)c2cc(NS(=O)(=O)c3cn(C)cn3)ccc2O1 was read as Vaccinia stage 20 and Vaccinia stage Venus 8.
Screening C[C@H]1CN([C@@H](C)CO)C(=O)c2cccc(NC(=O)c3cnccn3)c2O[C@@H]1CN(C)CC1CCCCC1 returned Vaccinia stage 20 and Vaccinia stage Venus 8.
`Cc1ccc(S(=O)(=O)Nc2ccc3c(c2)C(=O)N([C@H](C)CO)C[C@@H](C)[C@H](CN(C)S(=O)(=O)c2ccc(C)cc2)O3)cc1` gave Vaccinia stage 6 and Vaccinia stage Venus 7.
Screening CC=Cc1ccc2n(c1=O)C[C@@H]1[C@@H](CO)[C@H](C(=O)NC3CCCC3)N(Cc3nccs3)[C@H]21 (mixture of isomers) returned Vaccinia stage 8 and Vaccinia stage Venus 8.
`OC[C@H]1[C@H](c2ccc(C#CC3CCCC3)cc2)[C@H]2CN(CCC(F)(F)F)CCCCN21` gave Vaccinia stage inconclusive.
Screening Cc1ccccc1S(=O)(=O)N1CC[C@@H]2[C@H]1c1cc(-c3ccc(C#N)cc3)ccc1N[C@@H]2CO returned Vaccinia stage -22 and Vaccinia stage Venus -2.
`Cc1ccc(S(=O)(=O)N(C)C[C@H]2Oc3ncc(C#CCC(C)C)cc3C(=O)N([C@@H](C)CO)C[C@H]2C)cc1` gave Vaccinia stage -19 and Vaccinia stage Venus -14.
C[C@@H]1CCCCO[C@@H](CN(C)S(=O)(=O)c2ccc(Cl)cc2)[C@H](C)CN([C@@H](C)CO)C(=O)c2cc(NS(C)(=O)=O)ccc2O1 was read as Vaccinia stage -33 and Vaccinia stage Venus -25.
`O=C(C[C@@H]1C[C@H]2c3cc(NC(=O)NC4CCCC4)ccc3O[C@H]2[C@@H](CO)O1)NCc1ccccc1` gave Vaccinia stage 15 and Vaccinia stage Venus 14.
`COc1ccc(S(=O)(=O)N(C)C[C@H]2Oc3ccc(N(C)C)cc3CC(=O)N([C@H](C)CO)C[C@H]2C)cc1` gave Vaccinia stage -5 and Vaccinia stage Venus -10.
For COC(=O)[C@@]1(Cc2ccccc2CN=[N+]=[N-])N=C(c2ccc(OCCCO)cc2)O[C@H]1c1ccccc1N=[N+]=[N-] the results were Vaccinia stage -4 and Vaccinia stage Venus -4.
For COc1cccc(CNC(=O)[C@@H]2[C@@H](CO)[C@@H]3Cn4c(ccc(-c5cccc(OC)c5)c4=O)[C@@H]3N2C)c1 the results were Vaccinia stage -7 and Vaccinia stage Venus -2.
For COc1ccc(S(=O)(=O)N[C@H]2CC[C@@H](CC(=O)N3CCC(Cc4ccccc4)CC3)O[C@@H]2CO)cc1 the results were Vaccinia stage -12 and Vaccinia stage Venus -11.
For O=C(C[C@@H]1C[C@@H]2c3cc(NC(=O)CC4CC4)ccc3O[C@@H]2[C@@H](CO)O1)NCc1ccccn1 the results were Vaccinia stage 5 and Vaccinia stage Venus 8.
Screening O=C(C[C@H]1C[C@H]2c3cc(NC(=O)Cc4ccncc4)ccc3O[C@H]2[C@@H](CO)O1)NCc1ccccc1 returned Vaccinia stage 6 and Vaccinia stage Venus 3.
`CO[C@H]1CN(C)C(=O)c2cc(NS(=O)(=O)c3ccc(C)cc3)ccc2OC[C@H](C)N(C)C[C@@H]1C` gave Vaccinia stage -7 and Vaccinia stage Venus -7.
`OC[C@H]1Nc2ccc(C#Cc3cccnc3)cc2[C@H]2NCC[C@H]21` gave Vaccinia stage 4 and Vaccinia stage Venus 4.
Screening COC(=O)C[C@H]1C[C@H]2c3cc(NC(=O)Nc4ccc(C(F)(F)F)cc4)ccc3O[C@H]2[C@H](CO)O1 returned Vaccinia stage -1 and Vaccinia stage Venus 0.
C[C@@H]1CN([C@@H](C)CO)C(=O)c2cc(C#C[C@@H](C)O)cnc2O[C@H]1CN(C)C(=O)c1ccccc1F was read as Vaccinia stage 3 and Vaccinia stage Venus -1.
For COc1ccc(S(=O)(=O)N(C)C[C@@H]2Oc3ccc(NC(=O)CCN4CCOCC4)cc3CC(=O)N([C@H](C)CO)C[C@@H]2C)cc1 the results were Vaccinia stage 1 and Vaccinia stage Venus 2.
For CO[C@@H]1CN(C)C(=O)c2cc(NS(=O)(=O)Cc3ccccc3)ccc2OC[C@@H](C)N(Cc2nccs2)C[C@H]1C the results were Vaccinia stage -4 and Vaccinia stage Venus 0.
O=C(Cc1ccncc1)NCC[C@H]1CC[C@@H](NC(=O)C2CCCC2)[C@@H](CO)O1 was read as Vaccinia stage 7 and Vaccinia stage Venus 8.
For COc1cccc(S(=O)(=O)N2CCC3(CC2)CN[C@H](CO)c2c3c3ccc(OC)cc3n2C)c1 the results were Vaccinia stage -26 and Vaccinia stage Venus -19.
Screening C[C@@H]1CCCCO[C@H](CN(C)S(C)(=O)=O)[C@@H](C)CN([C@@H](C)CO)C(=O)c2cc(NS(=O)(=O)c3cn(C)cn3)ccc2O1 returned Vaccinia stage 11 and Vaccinia stage Venus 13.
Cc1cc(C(=O)Nc2cccc3c2O[C@H](CN(C)Cc2ccc(-c4ccccc4)cc2)[C@H](C)CN([C@H](C)CO)C3=O)n(C)n1 was read as Vaccinia stage -15 and Vaccinia stage Venus -6.

Compounds from the list above containing an aryl methoxy group (7):
`COCC(=O)Nc1ccc2c(c1)[C@@H]1C[C@H](CC(=O)NCc3ccc(OC)cc3)O[C@@H](CO)[C@@H]1O2` gave Vaccinia stage 14 and Vaccinia stage Venus 15.
Screening COc1ccc(CN(C)C[C@H]2OCCCC[C@@H](C)Oc3ccc(NC(=O)Nc4ccc(C(F)(F)F)cc4)cc3C(=O)N([C@H](C)CO)C[C@@H]2C)cc1 returned Vaccinia stage inconclusive.
`COc1ccc(S(=O)(=O)N(C)C[C@H]2Oc3ccc(N(C)C)cc3CC(=O)N([C@H](C)CO)C[C@H]2C)cc1` gave Vaccinia stage -5 and Vaccinia stage Venus -10.
For COc1cccc(CNC(=O)[C@@H]2[C@@H](CO)[C@@H]3Cn4c(ccc(-c5cccc(OC)c5)c4=O)[C@@H]3N2C)c1 the results were Vaccinia stage -7 and Vaccinia stage Venus -2.
For COc1ccc(S(=O)(=O)N[C@H]2CC[C@@H](CC(=O)N3CCC(Cc4ccccc4)CC3)O[C@@H]2CO)cc1 the results were Vaccinia stage -12 and Vaccinia stage Venus -11.
For COc1ccc(S(=O)(=O)N(C)C[C@@H]2Oc3ccc(NC(=O)CCN4CCOCC4)cc3CC(=O)N([C@H](C)CO)C[C@@H]2C)cc1 the results were Vaccinia stage 1 and Vaccinia stage Venus 2.
For COc1cccc(S(=O)(=O)N2CCC3(CC2)CN[C@H](CO)c2c3c3ccc(OC)cc3n2C)c1 the results were Vaccinia stage -26 and Vaccinia stage Venus -19.

Bioassay records deposited in PubChem by Broad Institute.
